Compound activity: PubChem, National Center for Advancing Translational Sciences (NCATS)
Cruzain inh Det: inhibitors of Trypanosoma cruzi cruzain with detergent | P25779 | purified cruzain, Z-FR-AMC fluorescence, 0.01% Triton | Potency, µM, without a hit: max response, negative = inhibition, hits mostly inhibitors | 200,000 compounds, 0.43% hits | AID 1478;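 further: plate controls were neutral wells for no effect and buffer without enzyme for full effect; nearly all actives have a fitted effect of over 40% in size; top concentration of the series not given in the record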
Target sequence (P25779 123-467 limits assumed): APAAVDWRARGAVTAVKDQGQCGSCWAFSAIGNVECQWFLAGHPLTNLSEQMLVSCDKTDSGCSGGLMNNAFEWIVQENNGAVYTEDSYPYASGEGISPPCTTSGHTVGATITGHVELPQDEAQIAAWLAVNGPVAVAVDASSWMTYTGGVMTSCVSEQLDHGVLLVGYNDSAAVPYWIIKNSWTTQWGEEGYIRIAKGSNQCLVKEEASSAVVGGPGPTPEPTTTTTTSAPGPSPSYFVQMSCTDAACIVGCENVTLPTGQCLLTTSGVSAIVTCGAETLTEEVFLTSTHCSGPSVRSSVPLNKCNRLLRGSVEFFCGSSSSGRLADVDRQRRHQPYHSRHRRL
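Detergent-containing run (0.01% Triton X-100) in acetate buffer pH 5.5 with 5 mM DTT: enzyme at 1.5 nM final, 15 min compound preincubation at room temperature, then 2 uM Z-FR-AMC substrate. Activity taken as 60 s fluorescence increase at 360/450 nm.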
StopGo reporter: FMDV 2A StopGo reporter, luciferase signal; AID 1159524; Potency, µM (highest dose often 57.9 µM), without a hit: top-dose signal change, negative = less light; 410,000 compounds, 1.2% hits; human cells with a luciferase reporter of 2A StopGo recoding; control for the full effect not named in the record; active = well fitted falling curve with a large enough effect; inconclusive = small, poorly fitted or top-dose-only effect; inactive = no such curve, though single readings can be large or run the other way; tested in HEK293T cells; further: on the % scale 0 is the no-effect control and ±100 the full control effect; nearly all actives have a fitted effect of over 45% in size; luciferase light after 4 h
Cruzain noTriton: cruzain (T. cruzi) inhibition without detergent | 200,000 compounds, 2.3% hits | purified cruzain, Z-FR-AMC fluorescence, no detergent | AID 1476 | Potency, µM, for inactives: max response, negative = inhibition, actives largely listed as inhibitors;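 further: plate controls were enzyme without inhibitor for no effect and buffer without enzyme for full effect; nearly all actives have a fitted effect of over 40% in size; top concentration of the series not given in the record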
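Detergent-free condition (0.00005% Triton X-100) in acetate buffer pH 5.5 with DTT. 1.5 nM enzyme and compound were pre-mixed 15 min, then 2 uM Z-FR-AMC substrate added; reaction progress from fluorescence change between first and third reads (60 s).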
NS1 function inh: influenza NS1 inhibition. S. cerevisiae slowed by influenza A NS1, growth recovery by OD600. 270,000 compounds, 0.4% hits. Potency, µM (series often up to 46.1 µM), inactives show at the top dose activity, positive = more growth; active means well fitted rising curve with a large enough effect; inconclusive means small, poorly fitted or top-dose-only effect; inactive means no such curve, though single readings can be large or run the other way; further: nearly all actives have a fitted effect of over 50% in size
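Recovery from NS1-induced slow growth read by OD600 in budding yeast switched to galactose assay medium (pH 6.0, -URA) at 1:100 dilution. Compound 23 nl per well; the matching strain lacking NS1 serves as control.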
RE007 growth inh: less growth of the S. pombe RE007 Vpr strain; S. pombe RE007 Vpr strain, BacTiter-Glo ATP luminescence, 24 h; control for the full effect not named in the record; Potency, µM (highest dose often 92.2 µM), without a hit: at the top dose activity change, negative = less growth; 360,000 compounds, 0.21% hits; AID 651644; active = well fitted falling curve with a large enough effect; inconclusive = small, poorly fitted or top-dose-only effect; inactive = no such curve, though single readings can be large or run the other way;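 further: on the % scale 0 is the no-effect control and ±100 the full control effect; nearly all actives have a fitted effect of over 50% in size; the assay follows cell death caused by Vpr and the record does not say whether a fall means rescue or toxicity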
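Fission yeast strain RE007, carrying one chromosomally integrated HIV-1 vpr copy, was seeded at OD 0.01 in PMG+AL medium with 23 nL pinned compound. After 24 h at 30 °C and 99% humidity, viability was read by BacTiter-Glo luminescence.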
LASV entry inh: inhibitors of Lassa virus binding or cell entry; Lassa virus pseudotype entry inhibition, cell reporter; control for the full effect not named in the record; Potency, µM (titrated, usually from 37.9 µM), inactives show top-dose activity change, negative = inhibition, usual class: inhibitors; 300,000 compounds, 1.2% hits; AID 540256; active means well fitted inhibition curve with a large enough effect; inconclusive means small, poorly fitted or top-dose-only effect, or effect the other way; inactive means flat fitted curve, though single readings scatter; tested in HEK293 cells; further: on the % scale 0 is the no-effect control and ±100 the full control effect; nearly all actives have a fitted effect of over 50% in size; luciferase read-out
MARV entry inh: inhibitors of Marburg virus binding or cell entry | Marburg virus pseudotyped entry inhibition, cell reporter; control for the full effect not named in the record; about a third of the inactives were read at about 46 µM | Potency, µM (titrated, usually from 37.8 µM), inactives show at the highest dose activity change, negative = inhibition, actives largely listed as inhibitors | 300,000 compounds, 1.8% hits; active = well fitted inhibition curve with a large enough effect; inconclusive = small, poorly fitted or top-dose-only effect, or effect the other way; inactive = flat fitted curve, though single readings scatter; tested in HEK293 cells; about a fifth of its hits are not listed in these tables; further: on the % scale 0 is the no-effect control and ±100 the full control effect; luciferase read-out
SARS PLpro yeast: SARS-CoV PLP inhibition in yeast; S. cerevisiae expressing SARS-CoV PLpro, growth rescue; control for the full effect not named in the record; Potency, µM (top dose mostly 32.9 µM), inactives show top-dose activity, positive = growth rescue; 330,000 compounds, 0.19% hits; AID 485353; active means well fitted rising curve with a large enough effect; inconclusive means small, poorly fitted or top-dose-only effect; inactive means no such curve, though single readings can be large or run the other way; further: 0% is about no effect; nearly all actives have a fitted effect of over 55% in size; growth read by luminescence after 48 h
Starred values were filed as active, the others as inactive; ? = inconclusive; . = not tested or not shown; & = joins results of further samples; [ ] = another dose, or the depositor's remark. Unless noted, the call rests on the fitted dose curve; in most records, active means well fitted curve in the direction sought with a large enough effect; inconclusive means small, poorly fitted or top-dose-only effect, or another doubt; inactive means no such curve, though single readings can be large; an effect the other way counts as inactive or inconclusive. Potency means the concentration at half of the fitted maximal effect.

SMILES | StopGo reporter | SARS PLpro yeast | RE007 growth inh | Cruzain inh Det | LASV entry inh | NS1 function inh | MARV entry inh | Cruzain noTriton
O=C(COC(=O)C1(c2ccc(F)cc2)CCCC1)NC1CC1 | 12% | 8% | 10% | 1.2% | -21% | -1% | 4% | 8%
COC(=O)[C@@H]1C[C@H]2CC[C@H](O)C[C@H]2N1Cc1ccc(C(C)(C)C)cc1 | 0% | 3% | -1% | -14% | . | 2% | . | -7%
Cc1ccc(CC2C(=O)N(c3ccccc3)C(=O)C2C)cc1 (configuration not stated) | -3% | 3% | 14% | . | 15% | -13% | 0% | .
CCc1cc2c(N[C@@H](Cc3c[nH]c4ccccc34)C(=O)O)ncnc2s1 | -10% | -3% | -7% | -9.5% | 7% | 5% | 6% | 17%
CCn1c(=O)cc(SCC(=O)Nc2ccc3c(c2)OCCO3)c2ccccc21 | 0% | 6% | 2% | -4.8% | -2% | 5% | -17% | ?
CCN(CC)C(=O)CSc1nnc(COc2ccccc2)n1N | -9% | 0% | 1% | . | . | -2% | . | .
CCN1CCN(Cc2ccc(C(=O)Nc3ccc(C)c(NCc4cnc(NC(=O)OC)cn4)c3)cc2C(F)(F)F)CC1 | 10%&-17% | -6% | ? | . | . | -3% | . | .
CC(=O)N1c2ccc(S(=O)(=O)N3CCC(C(=O)NCc4ccc(N(C)C)cc4)CC3)cc2CC1C (configuration not stated) | -17% | 0% | 6% | . | -8%[46.1 µM] | 4% | -5%[46.1 µM] | .
CCOc1ccc(C(=O)N/N=C/c2ccc(-c3ccc(S(=O)(=O)Nc4ncccn4)cc3)o2)cc1 | 14% | 0% | -6% | -10% | -10% | ? | 10% | 11%
Cc1cc(C(=O)N/N=C/c2ccc(-c3ccc([N+](=O)[O-])cc3C)o2)n[nH]1 | -24% | -22% | 2% | . | -25%[46.1 µM] | -28% | 0%[46.1 µM] | .
COc1ccc(NC(=O)C2CC(=O)n3c(nc4ccccc43)N2)cc1 (configuration not stated) | -11% | 1% | 0% | . | . | -3% | . | .
CCCCC1(CC)COP(=O)(OCC(Cl)(Cl)Cl)OC1 (configuration not stated) | -10% | . | 0% | . | 8%[46.1 µM] | . | 13%[46.1 µM] | .
O=c1[nH]c(NNC(=S)NCc2ccccc2)nc2c1C1(CCCCC1)Cc1ccccc1-2 | -23% | 17% | 22% | -1.7% | . | ? | . | -6%
CCC1Sc2ccc(S(=O)(=O)CCC(=O)Nc3ccc(OC(F)(F)F)cc3)cc2NC1=O (configuration not stated) | ? | 29% | -15% | . | . | 17% | . | .
Cc1ccc(S(=O)(=O)N2CCC(C(N)=O)CC2)c(C)c1C | 13% | . | 7% | 5.1% | 20% | 15% | ? | -7%
CC(C(C(=O)N1CCCCC1)N1CCCCC1)N1CCCCC1 (configuration not stated) | -10% | . | -1% | . | -2%[46.1 µM] | . | 2%[46.1 µM] | .
Nc1ccccc1-c1nnc(-c2ccc(-c3ccccc3)cc2)o1 | 26% | -1% | -10% | -0.5% | ? | 0% | ? | ?
Cc1ccc(N2CC(C(=O)NCc3cccs3)CC2=O)cc1C (configuration not stated) | -8% | 1% | -11% | -2.0% | 5% | 3% | 12% | ?
C=C(Cl)COc1ccc2c(CCC)cc(=O)oc2c1 | 1% | -7%[6.58 µM] | 7% | -8.7% | 3% | -86% | 12%[46.1 µM] | 11%
COc1ccc(CC(=O)NCCCc2ccccc2)cc1OC | -28% | 0% | 12% | . | -5%[46.1 µM] | -5% | -15%[46.1 µM] | .
Cc1ccc(OCC(=O)c2cc(C)n(Cc3ccco3)c2C)c([N+](=O)[O-])n1 | ? | -1% | 0% | . | -8% | 9% | ? | .
Cc1cc(=O)[nH]c(SCC(=O)Nc2cccc(S(=O)(=O)N3CCOCC3)c2)n1 | -24% | 0% | 13% | . | 15% | . | 0% | .
CCOc1cc(-c2sc(Nc3ccccc3)n[n+]2-c2ccc(F)cc2)ccc1OC | -5% | -2% | 16% | . | . | 8% | . | .
CN(CC(=O)Nc1ccc(N2CCOCC2)cc1)C(=O)CCc1ccccc1Cl | 2% | 5% | -5% | . | -10%[46.1 µM] | . | ? | .
CCC1CCc2c(sc(NC(=O)CSc3nc(-c4ccco4)cc(C(F)(F)F)n3)c2C#N)C1 (configuration not stated) | . | 2% | 9% | 3.9% | 6% | -1% | -17% | 1.3µM*
COc1cccc(C2CC(=O)Nc3cc4c(cc32)OCO4)c1OC(C)C (configuration not stated) | ? | . | . | -9.0% | -29%[46.1 µM] | . | ? | -5%
Cc1nc2nc(CCc3ccccc3)nn2c(C)c1Cl | 15% | 12% | 14% | 0.4% | -3% | -26% | ? | -8%
Cc1c(N)cccc1[N+](=O)[O-] | -8% | -16% | -3% | -2.8% | . | . | . | 1%
Cn1cnnc1SCC(=O)NC1CCCN(Cc2ccccc2F)C1 (configuration not stated) | -1% | 1% | -14% | . | 11%[46.1 µM] | 1% | 2%[46.1 µM] | .
CC(C)[C@H](NC(=O)c1ccccc1F)C(=O)NCc1ccc(S(N)(=O)=O)cc1 | -5% | 10% | 18% | . | 0% | 5% | -2%[46.1 µM] | .

Next entries.
SMILES | StopGo reporter | SARS PLpro yeast | RE007 growth inh | Cruzain inh Det | LASV entry inh | NS1 function inh | MARV entry inh | Cruzain noTriton
CC(C)(C)Nc1nc2nonc2nc1NC(C)(C)C | . | -25% | 4% | -3.4% | ? | -2% | -12% | -3%
O=C(CN1CCN(c2ccccn2)CC1)Nc1ccc(Br)cc1 | -12% | 1% | -10% | . | ? | -3% | -18%[46.1 µM] | .
Cc1noc(C)c1S(=O)(=O)N1CCC2(CC1)OCCO2 | 6% | -1% | 15% | 5.4% | 10% | 3% | ? | 4%
COC(=O)c1ccc(N2CCN(S(=O)(=O)c3c(C)cc(C)cc3C)CC2)c([N+](=O)[O-])c1 | -17% | 1% | 4% | -0.6% | ? | 14% | ? | -26%
CC1=NNC(=O)/C1=C\c1cn(-c2ccccc2)nc1-c1cccs1 | 10µM* | -67% | -2% | -3.5% | ? | 8% | -41% | ?
CCc1cccc(C)c1NC(=O)CO/N=C(\C)c1cc2ccccc2o1 | ? | 21% | -5% | -1.9% | ? | 7% | ? | 1%
Cc1ccc(S(=O)(=O)Cc2ccc(C(=O)N3CCC4(CC3)OCCO4)o2)cc1 | -4% | 1% | 0% | 5.4% | 2% | 10% | -1% | 1%
Cc1ccc(N2CC(C(=O)OCC(=O)NNC(=O)c3ccccc3)CC2=O)cc1 (configuration not stated) | -12% | -1% | -7% | . | -1% | . | 10% | .
Cc1ccc(NC(=O)CN(C)CC(=O)Nc2ccc(N3CCOCC3)cc2)c([N+](=O)[O-])c1 | -3% | 11% | 4% | -3.0% | ? | ? | ? | -6%
C/C(=C\c1ccccc1)CN1CCN(c2ccccc2F)CC1 | -5% | . | -9% | -1.2% | -1% | -48% | -15% | -3%
Cc1ccc(CON=C2CCN(c3ncc(C(F)(F)F)cc3Cl)CC2)cc1 | 42%[activator] | -16% | -15% | 1.2% | 11% | 0% | 9% | -6%
CCN(CCNC(=O)c1cc(C)nn1-c1ccccc1)c1ccccc1 | 6% | 3% | -2% | -5.5% | . | -5% | . | -1%
CN1CCN(C(=O)c2ccc3c(=O)n(Cc4ccco4)c(=S)[nH]c3c2)CC1 | 15% | -8% | -24% | 2.3% | -15% | 3% | 0% | -12%
Cc1ccc(C)c(NC(=O)CCC(=O)NNC(=O)c2cccs2)c1 | -25% | 3% | 8% | 5.0% | -1% | 17% | ? | 12%
CN1CCN(NC(=O)CN2C(=O)/C(=C/c3ccccc3F)SC2=S)CC1 | . | 10% | . | -10% | . | 8% | 3% | -8%
Cc1cc(-c2csc(NC(=O)c3ccc(S(=O)(=O)N(C)C)cc3)n2)c(C)n1-c1ccccc1 | 32µM* | 9% | -10% | -5.2% | ? | 29% | 1.3µM* | 16µM*
Brc1ccc(CSc2ccc3nnc(-c4ccccn4)n3n2)cc1 | ? | -11% | 30% | . | . | . | -12%[46.1 µM] | .
CCCCNC(=O)c1cccc(-n2c(C)nc3cccnc32)c1 | -2% | . | . | -9.5% | -7%[46.1 µM] | . | . | 13%
O=C(COC(=O)/C=C/c1ccccc1)Nc1cc(C(F)(F)F)ccc1N1CCOCC1 | -9% | 10% | -11% | -1.8% | -1% | 4% | -4%[46.1 µM] | -2%
CCCOc1ccc(-c2cccc(NS(=O)(=O)c3cc(OC)ccc3OC)c2)nn1 | 14% | . | . | -6.0% | 0%[46.1 µM] | . | . | -15%
O=[N+]([O-])c1ccccc1S(=O)(=O)c1ccccc1[N+](=O)[O-] | -10% | 0% | -8% | . | . | 0% | . | .
Cc1ccc(-n2nc3c(c2NC(=O)c2ccc(Br)o2)CSC3)c(C)c1 | -8% | -5% | 11% | -5.6% | 17%[14.3 µM] | -7% | 5% | 7%
Cc1ccc(-n2cnnn2)c(S(=O)(=O)N2CCOCC2)c1 | -3% | 8% | -6% | -0.7% | 0% | -9% | -7% | 10%
O=C(Nc1nnc(SCC(=O)N2CCOCC2)s1)C1CC(=O)N(c2ccc(F)cc2)C1 (configuration not stated) | -2% | 14% | 4% | . | . | 25% | . | .
COC(=O)CSc1nnc(-c2ccccn2)n1Cc1ccco1 | -23% | 10% | 3% | -2.2% | 28% | -6% | ? | 8%
COc1ccccc1Nc1nc(N(C)c2ccccc2)nc(N)c1[N+](=O)[O-] | 3% | 2% | 4% | . | . | -3% | . | .
COc1ccc(Cl)cc1NC(=O)CN1C(=O)CN=C(c2ccccc2)c2cc(Cl)ccc21 | 21% | . | . | -7.7% | ? | . | ? | 0%
CC12CC3CC(C)(C1)CC(C(=O)N1CCN(C(=O)C4CCCO4)CC1)(C3)C2 (configuration not stated) | 0% | -1% | 8% | . | 7% | -13% | 21% | .
O=C(CN(c1ccc2c(c1)OCCO2)S(=O)(=O)c1ccccc1)NCc1ccco1 | 30% | -1% | 17% | 1.0% | -21% | -14% | 5% | -10%
